# Screening results as filed in PubChem BioAssay.
# MgrA-DNA mod = modulators of Staphylococcus aureus MgrA DNA binding. 0.13% of 84,000 active. inhibition, %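 (about 10 µg/mL by stock and volumes)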. fluorescence polarization;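 active = above 50% in either of two replicates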;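 also: 0% = protein plus DNA without compound and 100% = DNA alone without protein; higher means less MgrA bound to DNA so lower polarization; one replicate is shown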
# Sa helicase inh = S. aureus DNA helicase inhibition | 0.05% of 120,000 active | purified S. aureus helicase, fluorescence unwinding assay; about half of the hits fall short of the stated cut | inhibition, %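 (tested at about 80 µM)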;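 active = both duplicates at 50% or more, or one of them with a favoured structure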;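 also: 0% = mean of negative control wells and 100% = mean of positive control wells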
# An asterisk follows results filed as active; / = no result given; & = joins results of further samples. Not all compounds are listed (hit frequency here may not be typical).
# Order of values: MgrA-DNA mod | Sa helicase inh
CCC(=O)Oc1ccc(/C=C/c2ccccc2)cc1OC
 : 0.3 | -2
Cn1c(=O)cc(OCCCC(=O)O)c2ccccc21
 : / | 34
COc1cc(OC)cc(C(=O)Nc2cc(C)nn2-c2ccccc2)c1
 : 0.6 | 16
O=C(O)CC1(O)c2ccccc2C(=O)N1Cc1ccccc1 (stereo unspecified)
 : 3.2 | 12
CC1CCCCN1C(=O)c1ccccc1NS(=O)(=O)c1ccc2ccccc2c1 (stereo unspecified)
 : -3.1 | 14
CC#C[C@]1(O)CC[C@H]2[C@@H]3CCC4=CC(=O)CCC4=C3[C@@H](c3ccc(N(C)C)cc3)C[C@@]21C
 : -1.4 | /
COc1ccc(N2CCN(/C=C3\C(=O)N(c4ccc(C)cc4)C(=O)c4ccccc43)CC2)cc1
 : / | 10
Cn1c(SCc2nc3ccccc3s2)nnc1-c1cccs1
 : / | -8
CNc1nc(Nc2ccc(OC(F)(F)F)cc2)nc(OCC(F)(F)F)n1
 : -1.1 | 9
O=C(COc1ccc(F)cc1)N(c1ccccn1)C1CCCCC1
 : / | 0
COc1ccc(-c2cc(C(=O)N3CCN(C)CC3)no2)cc1
 : 2.1 | 4
CCOC(=O)c1c(C)n(C)c2ccc(OCC)cc12
 : 1.5 | 3
COc1cccc(CNCCCN2CCOCC2)c1OCc1ccc(C)cc1
 : -1.0 | -2
COc1ccc(C2(c3ccc(OC)cc3)NC(=O)N(Cn3nnc4ccccc4c3=O)C2=O)cc1
 : / | -13
Cc1nn(-c2ccc(Cl)cc2)c2sc(C(=O)NC3=NCCS3)cc12
 : / | -12
CCOC(=O)C1CCC(CNCc2ccccc2C)CC1 (stereo unspecified)
 : -1.4 | 15
CCc1ccc(C(=O)NCc2cccs2)s1
 : -0.4 | 6
Cc1ccc(N2C(=O)C3CNC4(C(=O)Nc5ccc(Br)cc54)C3C2=O)cc1 (stereo unspecified)
 : / | 18
CC1CC(C)CN(c2nnc(NC(=O)c3csc4c3CCCC4)s2)C1 (stereo unspecified)
 : / | 17
COC(=O)c1cc(Cl)cc2c1N[S@](=O)S2
 : -3.7 | /

# Further structures.
# Order of values: MgrA-DNA mod | Sa helicase inh
O=c1c(O)cccc2cc(O)c(O)c(O)c12
 : 15 | /
FC(F)(F)c1cc(NNc2cc(C(F)(F)F)cc(C(F)(F)F)c2)cc(C(F)(F)F)c1
 : -0.4 | /
COc1ccc(-n2c(-c3ccc(Cl)cc3)cnc2SCc2nccn2C)cc1
 : / | -1
O=C1CC(CSc2nnc(-c3ccc(Cl)cc3)n2-c2ccccc2)=NN1
 : -1.3 | 13
O=[N+]([O-])c1ccc(N2CCOCC2)cc1
 : 0.7 | /
O=C(O)CN1C(=O)/C(=N\N2C(=O)CSC2=S)c2ccccc21
 : 15 | 23
c1cc(CNC2CCCCC2)co1
 : 0.3 | -6
CCNS(=O)(=O)c1cc(OC)c(Cl)cc1OC
 : 0.9 | 23
COc1ccccc1Nc1nc(-c2ccccc2)c2cc(Cl)ccc2n1
 : -0.6 | -6
Cc1ccc(C(=O)COc2ccccc2O)cc1
 : -2.0 | -10
CC(=O)Nc1ccc(C(=O)CSc2nnc(-c3cccc(Br)c3)o2)cc1
 : 3.0 | 18
COc1cc(C(=O)OC(C)C#N)cc(Br)c1O (stereo unspecified)
 : / | -7
Cc1ccccc1OCCn1c(CCCNC(=O)C2CCCCC2)nc2ccccc21
 : -0.2 | 3
Cc1ccc2c(c1)NC(C1CC1)=NC(c1ccc(F)cc1)=N2
 : / | -7
CCn1nc(-c2cccs2)cc1C(=O)Nc1ccccc1
 : -0.9 | /
CCOC(=O)C1=C(CN(C)c2ccccc2)NC(=O)NC1c1ccc(OC(C)C)cc1 (stereo unspecified)
 : / | 12
CS(=O)(=O)N1CCSC1c1ccc(Cl)cc1 (stereo unspecified)
 : / | 23
O=C1CN(c2ccccc2)C(=O)C1C(=O)Nc1ccccc1 (stereo unspecified)
 : 0.0 | 10
COC(=O)c1sccc1NC(=O)CC1C(=O)NCCN1C(=O)NS(=O)(=O)c1ccc(C)cc1 (stereo unspecified)
 : / | -28
COc1cccc(CNC(=O)C2CSC3(CCN(C)CC3)N2C(C)=O)c1 (stereo unspecified)
 : / | -13

# Compounds from the list above that have a COOH group (3):
# Order of values: MgrA-DNA mod | Sa helicase inh
Cn1c(=O)cc(OCCCC(=O)O)c2ccccc21
 : / | 34
O=C(O)CC1(O)c2ccccc2C(=O)N1Cc1ccccc1 (stereo unspecified)
 : 3.2 | 12
O=C(O)CN1C(=O)/C(=N\N2C(=O)CSC2=S)c2ccccc21
 : 15 | 23

# Following part
# Order of values: MgrA-DNA mod | Sa helicase inh
COc1cccc(-c2ccc(=O)n(CC(=O)NCc3ccccc3)n2)c1
 : / | 14
CC(NC(=O)C1CCCN(S(=O)(=O)N2CCCCC2)C1)C12CC3CC(CC(C3)C1)C2 (stereo unspecified)
 : 0.1 | 4
COC(=O)c1sc(-c2ccc(Cl)cc2)cc1N
 : 0.4 | /
O=C(NC1CCN(C(=O)NCc2ccccc2)CC1)c1ccco1
 : 1.3 | 9
Cc1ccc(C23CCC(=O)N2C(C(=O)N2CCN(c4ccc(F)cc4)CC2)CS3)cc1 (stereo unspecified)
 : / | -14
COc1ccccc1CNCC(=O)NCc1ccc(C)cc1
 : -5.6 | 9
COC(=O)c1c(C)sc2cc(C(C)(C)C)sc12
 : 0.3 | /
N#Cc1cc2c(nc1SCC(N)=O)CCCC2=O
 : / | 8
Cc1ccc(C)c(-n2[nH]cc(-n3cncn3)c2=O)c1
 : -4.2 | /
Cc1cc(N)c2ccccc2n1
 : / | 3
CC1Sc2ccc(C(=O)O)cc2NC1=O (stereo unspecified)
 : / | -8
CCCn1c(=S)[nH]c2sc3c(c2c1=O)CCCC3
 : / | -11
Cc1c(C(=O)NC(=S)Nc2ccc(Br)cn2)oc2ccccc12
 : 2.8 | 7
CCS(=O)(=O)N1CCN=C1SC(C)c1ccccc1 (stereo unspecified)
 : / | 14
Cc1ccc(C(=O)N/N=C2\CC3CC=CC23)c(C)c1 (stereo unspecified)
 : / | -6
N#CNC(=Nc1ccccc1)Oc1ccccc1
 : 2.7 | /
CC(Sc1n[nH]c(N)n1)C(=O)Nc1ccccc1 (stereo unspecified)
 : / | 2
CCOC(=O)c1sc(SC)c(-c2ccccc2)c1N
 : -2.5 | /
C=CCn1c(COc2ccccc2)nc2ccccc21
 : / | 16
O=S(=O)(Cc1ccccc1)Nc1cccnc1
 : 1.5 | 12

# The list continues.
# Order of values: MgrA-DNA mod | Sa helicase inh
CC(C)(ONC(=O)Nc1ccccc1Cl)C(=O)O
 : / | -11
CCn1c(=O)n(Cc2ccc3c(c2)OCO3)c(=O)c2oc3ccccc3c21
 : / | 13
CC1O[C@@H](OC2/C=C/C=C/C=C/C=C/C[C@@H](C)OC(=O)/C=C/[C@H]3O[C@@H]3C[C@H](O)C[C@]3(O)C[C@H](O)[C@@H](C(=O)O)[C@H](C2)O3)C(O)C(N)[C@@H]1O (stereo partly specified)
 : 0.0 | /
CN1C(=O)/C(=C\c2cccc(C(F)(F)F)c2)c2ccccc21
 : / | 13
COc1ccc(C(CNS(=O)(=O)c2cccc(C(=O)O)c2)N2CCCC2)cc1 (stereo unspecified)
 : / | 19
O=S(=O)(CCN1CCSCC1)c1ccc(Cl)cc1
 : -3.6 | /
CCCC(=O)Nc1cc(C)c(NC(=O)CCC)cn1
 : -1.0 | 16
Cn1c(=O)c2c(nc(NCc3ccc4c(c3)OCO4)n2Cc2ccc(Br)cc2)n(C)c1=O
 : 0.1 | /
S=c1nn[nH]n1C1CC2CC1C1C=CCC21 (stereo unspecified)
 : -0.9 | /
Cc1ccc(/C=[N+](\[O-])c2ccc(N(C)C)cc2)c2nsnc12
 : 0.3 | -8
Cc1cc(=O)oc2cc(OCC(=O)N3CCOCC3)ccc12
 : -2.9 | 19
Cc1c(N=C2C(=O)N(C(C)C)c3ccccc32)c(=O)n(-c2ccccc2)n1C
 : / | 0
CC[n+]1c(-c2c(C)oc3cc(O)ccc3c2=O)csc1C
 : / | -19
CCN(C)CC12CC3CC(CC(C3)C1)C2
 : 4.2 | 3
O=c1cc(CSc2nc3ccccc3o2)occ1O
 : / | 7
CCCCc1nc2ccccc2n1CC(=O)Nc1sc2c(c1C(N)=O)CCCC2
 : / | -8
CC(=O)Oc1ccc(-c2ccc(C(=O)O)cc2)cc1Cl
 : 1.8 | 8
CC(C(=O)NCc1ccncc1)n1c(C(F)(F)F)nc2ccccc21 (stereo unspecified)
 : -3.5 | /
c1cncc(-c2noc(-c3cc(-c4ccco4)n[nH]3)n2)c1
 : / | 4
OCc1ccc2ccccc2n1
 : / | -8

# More results follow:
# Order of values: MgrA-DNA mod | Sa helicase inh
COc1ccc(NC(=O)CNc2cccc(Oc3ccccc3)c2)cc1
 : 2.8 | -7
Cc1nn2cc(-c3ccc(N)cc3)nc2s1
 : 2.8 | 14
COc1ccccc1N1CCN(C(=O)c2ccc3[nH]c4c(c3c2)CCCC4)CC1
 : / | 4
COc1ccc2cc3cc(C(=O)N(C)c4cccc(C)c4)oc3nc2c1
 : 1.5 | 17
COC(=O)C(Cc1ccccc1)NC(=O)c1cccc(S(=O)(=O)N(C)C)c1 (stereo unspecified)
 : / | 22
CN(C)CCn1c(=O)c2[nH]cnc2n(C)c1=O
 : 0.8 | 0
CCOC(=O)C1CCCN(C(=O)c2sc3nc(-c4ccc(OC)cc4)cn3c2C)C1 (stereo unspecified)
 : -0.1 | 14
CCc1ccc(-n2cnc3ccccc3c2=O)cc1
 : 1.7 | -17
Cc1ccc(N)cc1N(C)C
 : -4.2 | 17
CSc1ccccc1NC(=O)CN(C)CN1C(=O)C2CC=CCC2C1=O (stereo unspecified)
 : / | 6
CSCCC(C(=O)N1CCN(S(=O)(=O)c2ccccc2C#N)CC1)N1C(=O)c2ccccc2C1=O (stereo unspecified)
 : / | 0
CC(C)OC(=O)Cn1cnc2ccc(Br)cc2c1=O
 : 2.4 | -5
COC(=O)c1sccc1-c1ccc(C(=O)/C=C/N(C)C)o1
 : 4.2 | /
CN(CC(=O)NCCc1ccc(F)cc1)Cc1ccccc1
 : / | 4
Cc1ccc(NC(=O)CN2C(=O)C(C)(C)Oc3ccc(C(=O)N4CCCC4)cc32)cc1
 : 0.7 | 3
CCc1cccc(NC(=O)C2=C(C)C(=O)OC23CCCCC3)c1
 : 0.2 | 22
CC(=O)NN1C(=O)/C(=C2\C(=O)N(C)c3ccccc32)SC1=S
 : 4.3 | -3
O=c1c2ccccc2c2nc3c(=O)c4ccccc4c3nc12
 : 1.1 | 10
Cc1cc2n(n1)CCCN2CC(=O)N1CCc2ccccc21
 : / | -2
O=C(CCCOc1ccc(Cl)cc1Cl)NO
 : / | -19

# (next part)
# Order of values: MgrA-DNA mod | Sa helicase inh
CCCCC1=NC2(CCCC2)C(=O)N1Cc1ccc(-c2ccccc2-c2nn[nH]n2)cc1
 : 0.1 | /
CCOC(=O)c1c(N)sc(SC#N)c1-c1ccccc1
 : / | 21
CC1CCN(CC(=O)Nc2ccc(S(=O)(=O)N3CCCCC3)cc2)CC1
 : 2.0 | -7
CN(C)c1c(F)cc(C(=O)NC(=O)NCc2cccnc2)cc1F
 : -1.9 | /
CCSCC1COC(c2cn(CC)c3ccccc23)=N1 (stereo unspecified)
 : / | 25
CC1=C(C(=O)Nc2ccccn2)C(c2ccc(C)cc2)C2=C(CC(C)(C)CC2=O)N1 (stereo unspecified)
 : 0.5 | 7
COC(=O)c1cc(S(=O)(=O)NCCCN2CCN(Cc3ccccc3)CC2)cn1C
 : / | 4
O=C(O)CCCN=CC1=C(O)CCCC1=O
 : / | -23
CCOC(=O)CSc1nn(-c2ccccc2)c(=S)s1
 : / | 17
O=C(O)c1cc2c(Cl)cc(Cl)cc2[nH]1
 : -1.0 | /
Cn1cnc(S(=O)(=O)Nc2ccc(C#N)cc2)c1
 : -1.6 | /
O=C1NCCCC1C(=O)Nc1ccccc1C(F)(F)F (stereo unspecified)
 : 0.0 | 10
Cc1noc(C)c1CSc1nnnn1-c1ccccc1
 : / | 22
CSc1ccc(C(=O)CCC(=O)OCc2ncc(-c3ccccc3)o2)cc1
 : / | -7
CCC1Oc2ccc(C)cc2N(Cc2ccc(F)cc2)C1=O (stereo unspecified)
 : / | -4
COc1ccccc1CNc1ncnc2c1cnn2-c1ccccc1
 : / | -19
CCOC(=O)c1c(NC(=O)c2ccc(Cl)cc2Cl)n[nH]c1N
 : / | 6
O=C(/C=c1/[nH]c(=O)/c(=C/c2cccc(C(F)(F)F)c2)s1)c1ccco1
 : / | -7
O=S(=O)(NCc1ccccc1)c1ccc(Cl)cc1
 : -1.8 | /
O=C(c1c[nH]c2ccc(S(=O)(=O)Nc3ccccc3F)cc2c1=O)N1CCOCC1
 : 0.9 | -16

# 5 entries from above, tab-delimited:
Compound	MgrA-DNA mod	Sa helicase inh
CCSCC1COC(c2cn(CC)c3ccccc23)=N1 (stereo unspecified)	/	25
CC1=C(C(=O)Nc2ccccn2)C(c2ccc(C)cc2)C2=C(CC(C)(C)CC2=O)N1 (stereo unspecified)	0.5	7
COC(=O)c1cc(S(=O)(=O)NCCCN2CCN(Cc3ccccc3)CC2)cn1C	/	4
O=C(O)CCCN=CC1=C(O)CCCC1=O	/	-23
CCOC(=O)CSc1nn(-c2ccccc2)c(=S)s1	/	17

# New compounds follow:
# Order of values: MgrA-DNA mod | Sa helicase inh
CSCc1cccc(C(=O)O)c1
 : / | 24
O=C(CNS(=O)(=O)c1ccccc1F)OCc1nc2ccccc2s1
 : / | -16
O=c1oc2c3c(c(Cl)cc2c2c1CCC2)OCN(Cc1ccccc1)C3
 : / | -19
CCOC(=O)c1c(C)nc2ccccc2c1N
 : / | 37
CCOC(=O)c1cnc(N2CCCCC2)nc1C
 : / | -3
Cc1ccc(S(=O)(=O)c2c(CO)c(-c3ccccc3)nn2C)cc1
 : -0.5 | /
COC(=O)COc1cc(O)c2c(=O)c(-c3ccc4c(c3)OCCO4)coc2c1
 : / | -31
COc1cc2ccc(=O)oc2cc1O
 : 4.7&-0.8 | /
Cc1ccc(Cl)cc1N(C)C(=O)c1cc2c(-c3ccc(Cl)cc3)nn(C)c2s1
 : -1.9 | 6
Nn1c(SCC(=O)c2ccc[nH]2)nnc1SCC(=O)c1ccc[nH]1
 : / | -3
